Assay outcomes (PubChem BioAssay)
TRPV1 potentiator: HTS Assay for Compounds that Act as Potentiators of the Vanilloid Receptor 1 | potentiation, % at 8.33 µM | TRPV1-expressing cells, Fluo-8 calcium influx, capsaicin EC20 potentiation; host cell line not named in the record; control for the full effect not named in the record | actives 0.02% (n = 320,000) | Transient receptor potential cation channel subfamily V member 1 (Homo sapiens), Q8NER1; active means potentiation above 80%; inconclusive means 30% to 80%; inactive means below 30%; note: 0% is about no effect
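Fluo-8 calcium influx in TRPV1-expressing cells, kinetic read (ex 480/em 520 nm). Compound added and read 3 min for agonist activity, followed by capsaicin at EC20 final and 2 min further read for enhancement.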
TRPML1 ag: qHTS for Agonists of the Human Mucolipin Transient Receptor Potential 1 (TRPML1) | Mucolipin-1 (Homo sapiens), Q9GZU1 | TRPML1-expressing cells, Ca2+ dye fluorescence, FDSS; host cell line not named in the record; reference of the full effect not given here | activation, % (test concentration not listed) | actives 0.12% (n = 410,000); in the data active = activation above about 50%; inconclusive = about 30% to 50%; inactive = below about 30%; note: 0% is about no effect; the text of the record puts the active cut at 80%
Target sequence (Q9GZU1 whole entry, looked up): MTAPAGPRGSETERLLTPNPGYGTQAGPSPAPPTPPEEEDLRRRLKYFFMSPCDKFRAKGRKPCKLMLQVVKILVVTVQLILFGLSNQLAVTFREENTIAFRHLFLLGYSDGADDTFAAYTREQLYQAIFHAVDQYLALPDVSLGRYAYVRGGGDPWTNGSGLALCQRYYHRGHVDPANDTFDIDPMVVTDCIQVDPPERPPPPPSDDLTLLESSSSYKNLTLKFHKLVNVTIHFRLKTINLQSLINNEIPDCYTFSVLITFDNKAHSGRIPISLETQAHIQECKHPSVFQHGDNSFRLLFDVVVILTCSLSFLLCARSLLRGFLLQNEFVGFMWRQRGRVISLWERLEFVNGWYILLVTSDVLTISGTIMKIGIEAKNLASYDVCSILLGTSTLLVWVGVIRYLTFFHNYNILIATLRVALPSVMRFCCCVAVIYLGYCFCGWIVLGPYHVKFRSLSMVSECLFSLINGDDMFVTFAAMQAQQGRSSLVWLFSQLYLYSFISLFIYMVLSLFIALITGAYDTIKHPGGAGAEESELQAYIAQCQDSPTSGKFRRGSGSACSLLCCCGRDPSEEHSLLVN
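Tet-induced TRPML1-DL cells, 1,500 per well, cultured overnight, were loaded with a no-wash Ca2+ dye for 45–90 min. Calcium fluorescence was recorded on the FDSS for 110 s after compound addition, before the EC80 agonist (4 uM 54-4) was added.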
Six1-Eya2 blk: qHTS Assay for Inhibitors of the Six1/Eya2 Interaction; Homeobox protein SIX1 (Homo sapiens) + Protein phosphatase EYA2 (Homo sapiens), …; AlphaScreen GST-Six1/His-Eya2 binding, biochemical; active compounds read low; control for the full effect not named in the record; activity change, % (test concentration not listed); actives 0.56% (n = 360,000); AID 651725, 2012; in the data active = activity change below about -65%; inconclusive = about -30% to -65%; inactive = above about -30%; note: % is set by controls: 0 for no effect and ±100 for the full control effect
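Homogeneous AlphaScreen proximity assay pairing GST-Six1 with His-tagged Eya2 (added as 5X mix: 250 nM and 500 nM) in 50 mM Tris pH 8.0, 300 mM NaCl, 1 mM TCEP. Glutathione donor and nickel acceptor beads; 1 h, 37 °C, dark.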
D2 PAM: Beta-Arrestin HTS for Positive Allosteric Modulators of the Human D2 Dopamine Receptor: Potentiators | DiscoveRx D2 beta-arrestin cells, luminescence, 90 min; 100% = 57 uM dopamine signal | potentiation, % (test concentration not listed) | actives 0.23% (n = 360,000); active = potentiation of 50% or more; inconclusive = 30% to 50%; inactive = 30% or less;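 note: compound concentration not given in the record; tested on top of an EC20 dose of dopamine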
Target sequence (P14416 whole entry, looked up): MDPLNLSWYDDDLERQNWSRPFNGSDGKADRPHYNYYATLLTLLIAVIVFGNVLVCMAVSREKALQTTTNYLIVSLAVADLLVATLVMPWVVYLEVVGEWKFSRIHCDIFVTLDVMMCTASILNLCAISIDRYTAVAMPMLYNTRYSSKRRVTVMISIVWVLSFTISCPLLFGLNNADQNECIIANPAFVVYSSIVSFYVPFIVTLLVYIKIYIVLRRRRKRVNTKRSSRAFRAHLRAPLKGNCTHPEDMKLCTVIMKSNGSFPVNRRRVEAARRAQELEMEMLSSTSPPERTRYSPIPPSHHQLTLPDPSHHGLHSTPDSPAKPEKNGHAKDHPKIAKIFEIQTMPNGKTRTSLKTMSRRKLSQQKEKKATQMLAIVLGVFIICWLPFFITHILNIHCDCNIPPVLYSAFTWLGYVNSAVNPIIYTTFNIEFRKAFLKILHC
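PathHunter beta-arrestin assay in DiscoveRx D2 cells. Compounds were added with an EC20 of dopamine (50 nM final) for 90 min at 37 deg C. Luminescence was read 1 h after detection reagent, with 57 uM dopamine as the EC100 control.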
CtBP-E1A inh: qHTS Assay for Inhibitors of the CtBP/E1A Interaction; AlphaScreen GST-E1A/His-CtBP binding, 1536-well; active compounds read low; control for the full effect not named in the record; activity change, % (concentration not given with the values); AID 651724, 2012; CtBP / adenovirus E1A interaction (AlphaScreen); actives 0.49% (n = 340,000); in the data active means activity change below about -65%; inconclusive means about -30% to -65%; inactive means above about -30%; note: % is set by controls: 0 for no effect and ±100 for the full control effect
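Protein mix (5X: 125 nM each GST-E1A, His-CtBP) was incubated with pinned compound 2 h at 37 deg C in dark, in 50 mM Tris pH 8.0 buffer with 300 mM NaCl. Glutathione donor and nickel acceptor beads followed; AlphaScreen signal read after 1 h.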
TRPML1 blocker: qHTS for Inhibitors of the Human Mucolipin Transient Receptor Potential 1 (TRPML1) | Mucolipin-1 (Homo sapiens), Q9GZU1 | TRPML1-inducible cells, Ca2+ dye fluorescence, FDSS; active compounds read low; inhibition of EC80 agonist-evoked calcium signal | actives 0.02% (n = 390,000) | AID 624415, 2012 | activity change, negative = inhibition, % (test concentration not listed); in the data active means activity change below about -50%; inconclusive means about -30% to -50%; inactive means above about -30%;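 note: stimulus is agonist 54-4 at its EC80 concentration; % is set by controls: 0 for no effect and ±100 for the full control effect; compound concentration not given in the record; the text of the record puts the active cut at -80%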
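Calcium fluorescence in TRPML1-DL cells induced overnight with Tet: a 110 s read after compound pin addition, then a 110 s antagonist read after challenge with 54-4 at 4 uM final (EC80).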
* hit, by the source's call; u = inconclusive; x = not tested or not shown; & = joins results of further samples.

The first 6 records as a preview:
SMILES | TRPV1 potentiator | TRPML1 ag | Six1-Eya2 blk | D2 PAM | CtBP-E1A inh | TRPML1 blocker
Cc1ccc(S(=O)(=O)N2CCCN(S(=O)(=O)C3CCS(=O)(=O)C3)CC2)cc1 (stereo not given) | x | 0.4 | 5 | -2 | 5 | -6
Cc1ccc(-n2nc3c(=O)n(CC(=O)NC4CCCCCC4)nc(C)c3c2C)cc1 | -1 | -0.7 | 9 | -7 | -5 | -4
O=[N+]([O-])c1ccc(Cc2ccc([N+](=O)[O-])cc2)cc1 | x | 2.1 | -3 | 6 | -3 | 46
Cc1cccc(N2CCN(CC(=O)N(C3CCCC3)C3CCS(=O)(=O)C3)CC2)c1C (stereo not given) | -12 | 0.5 | -18 | -12 | 7 | -23
CCN(CC)C(=O)C1=C(C)N(Cc2ccccc2)C(=O)C(CC(=O)NCCc2ccccn2)C1 (stereo not given) | x | -0.7 | 7 | 3 | 5 | -19
COc1cccc(N=CNc2cccc(OC)c2)c1 | x | 0.3 | 0 | -10 | 7 | -9

The whole of this part (from the top)
SMILES | TRPV1 potentiator | TRPML1 ag | Six1-Eya2 blk | D2 PAM | CtBP-E1A inh | TRPML1 blocker
Cc1ccc(S(=O)(=O)N2CCCN(S(=O)(=O)C3CCS(=O)(=O)C3)CC2)cc1 (stereo not given) | x | 0.4 | 5 | -2 | 5 | -6
Cc1ccc(-n2nc3c(=O)n(CC(=O)NC4CCCCCC4)nc(C)c3c2C)cc1 | -1 | -0.7 | 9 | -7 | -5 | -4
O=[N+]([O-])c1ccc(Cc2ccc([N+](=O)[O-])cc2)cc1 | x | 2.1 | -3 | 6 | -3 | 46
Cc1cccc(N2CCN(CC(=O)N(C3CCCC3)C3CCS(=O)(=O)C3)CC2)c1C (stereo not given) | -12 | 0.5 | -18 | -12 | 7 | -23
CCN(CC)C(=O)C1=C(C)N(Cc2ccccc2)C(=O)C(CC(=O)NCCc2ccccn2)C1 (stereo not given) | x | -0.7 | 7 | 3 | 5 | -19
COc1cccc(N=CNc2cccc(OC)c2)c1 | x | 0.3 | 0 | -10 | 7 | -9
C/C=C/CSc1nc2c(c(=O)[nH]c(=O)n2C)n1Cc1ccc(C)cc1 | u | 0.2 | 2 | -4 | 6 | -5
COCCNC(=O)C1CCC(CNS(=O)(=O)c2ccc3c(c2)CC(C)N3C(=O)C2CC2)CC1 (stereo not given) | -7 | -0.3 | 3 | -8 | 6 | -1
Cc1ccc(S(=O)(=O)N2CCN(C(=O)COC(=O)CSc3ccccc3)CC2)c(C)c1 | 2 | 0.6 | 0 | 15 | 9 | 15
COc1ccccc1-c1cnc2c(c1)C(=O)N([C@@H](C)CO)C[C@H](C)[C@H](CN(C)C)O2 | x | 0.2 | 3 | -1 | -4 | 19
CC(=O)N1C(C)(C)CC(=NOS(=O)(=O)c2ccccc2)CC1(C)C | 3 | -0.6 | 0 | -4 | 2 | -11
CCCCn1c(N)c(N(CC)C(=O)c2ccc3c(c2)S(=O)(=O)c2ccccc2C3=O)c(=O)[nH]c1=O | -5 | 1.6 | 1 | -4 | 3 | 1

Some values from the entries so far.
COc1ccccc1-c1cnc2c(c1)C(=O)N([C@@H](C)CO)C[C@H](C)[C@H](CN(C)C)O2 in D2 PAM has -1
CCCCn1c(N)c(N(CC)C(=O)c2ccc3c(c2)S(=O)(=O)c2ccccc2C3=O)c(=O)[nH]c1=O in TRPV1 potentiator has -5
COc1cccc(N=CNc2cccc(OC)c2)c1 in CtBP-E1A inh has 7
Cc1ccc(S(=O)(=O)N2CCCN(S(=O)(=O)C3CCS(=O)(=O)C3)CC2)cc1 (stereo not given) in CtBP-E1A inh has 5

Continuation:
SMILES | TRPV1 potentiator | TRPML1 ag | Six1-Eya2 blk | D2 PAM | CtBP-E1A inh | TRPML1 blocker
CCOC(=O)C1(Cc2cccc(Cl)c2)CCCN(CCO)C1 (stereo not given) | -12 | -0.2 | -2 | -4 | 13 | -6
Cc1nnc(SCC(=O)N(C)CC(=O)Nc2ccccc2Cl)s1 | 0 | -1.1 | 3 | 4 | 6 | -10
S=C(NCc1cccc(Cl)c1)NC1CCCCC1 | -12 | 1.2 | 11 | -18 | 2 | 22
CCc1ccccc1NC(=O)CCC(=O)OCC(=O)c1ccc(-c2ccccc2)cc1 | 8 | -0.7 | -9 | -32 | 21 | -9
CC(C)N(C(=O)c1ccccc1-c1ccccc1)C(C)C | 15 | 0.0 | 3 | -10 | 12 | 65
COc1cccc(-n2c(Cc3cc(=O)[nH]c(=O)[nH]3)nnc2SCc2cccnc2)c1 | x | -0.6 | 0 | -6 | 5 | -11
O=C(NC1CCCCCCC1)c1cc(F)c(F)cc1Cl | -6 | 0.8 | -1 | -4 | -19 | 24
COc1ccc([C@@]2(C(C)C)ON(c3ccccc3C(F)(F)F)C2=O)cc1 | -22 | 2.8 | 43 | -1 | 3 | 7
O=C(NCc1ccco1)c1cc2nc(C3CC3)cc(C(F)(F)F)n2n1 | 0 | 1.2 | -6 | -25 | -13 | 3
CCOC(=O)c1ccccc1NC(=O)Cc1ccccc1OC | -8 | -0.1 | 5 | -14 | 14 | 4
Fc1cccc(Cc2noc(CN3CCN(c4cnccn4)CC3)n2)c1 | -1 | -0.2 | -9 | -8 | -13 | 6
COc1ccc(N(C)S(=O)(=O)c2cccc(C(=O)OCC(=O)N3CC(C)CC(C)C3)c2)cc1 (stereo not given) | x | 1.8 | -5 | 7 | -5 | 14
COc1cc(C(C)=O)ccc1COc1ccc(C(=O)O)cc1OC | 12 | -0.3 | 1 | -1 | -5 | 3
CC(=O)OC(C(=O)NCc1ccco1)c1ccncc1 (stereo not given) | 7 | 0.3 | 24 | -15 | 2 | -11
Cc1cc(C)c2c(N)c(C(=O)C(C)(C)C)sc2n1 | -14 | 3.1 | -1 | -12 | 23 | -7
Cn1c(SCc2n[nH]c(=S)o2)nnc1-c1ccccc1 | 11 | -0.7 | -3 | 6 | 3 | -6
CCOC(=O)CSc1nc2sc(C)c(C)c2c(=O)[nH]1 | -1 | 3.3 | -2 | -15 | -2 | -3
CCOC(=O)C1=C(CSc2nc(CC)c(C)cc2C#N)OC(N)=C(C#N)C1c1ccccc1 (stereo not given) | 16 | 6.0 | -9 | -8 | -3 | -4
CCOc1ccc(NS(=O)(=O)c2ccc(NS(=O)(=O)c3ccccc3)cc2)cc1 | 1 | 5.2 | -1 | 18 | -8 | 1
CCC(NC(=O)c1cc(COc2ccc(F)cc2Cl)on1)c1ccncc1 (stereo not given) | -4 | -0.2 | -13 | -52 | -5 | -10
O=C(COc1ccccc1)NCCSc1ccccc1 | -15 | -0.7 | 6 | -7 | 8 | 1
O=C(CN1C(=O)C2C3C=CC(C3)C2C1=O)OCC(=O)c1ccc(Br)cc1 (stereo not given) | -22 | 0.6 | -22 | -27 | -21 | 3
COc1ccc(N=C2NC(=O)/C(=C/C=C/c3ccccc3)S2)cc1 | 13 | 0.7 | 0 | -25 | 4 | 17
CCn1ncc(/C=N/O)c1C | 6 | 0.4 | 0 | -15 | 4 | 35
CCC(CO)Oc1cc(NC(=O)c2ccccc2C)c2ncn(C(C)C)c2c1 (stereo not given) | x | -0.8 | 2 | 4 | 0 | -3
CCOc1ccccc1CN1CCN(Cc2cc3ccccc3[nH]2)CC1CCO (stereo not given) | 10 | u | 0 | -9 | -11 | 2
CCCCN(C)CCn1c(=S)[nH]c2ncccc2c1=O | -10 | 0.0 | 5 | -15 | -4 | -10
CCN(CC)S(=O)(=O)c1cc(-c2nn(C)c(=O)c3ccccc23)ccc1C | -3 | 0.7 | 10 | -14 | 6 | -10
CN1CCCC(OC(=O)c2cc(F)c(F)c(F)c2F)C1 (stereo not given) | -10 | -0.9 | 12 | -9 | 0 | 2
Cc1ccc(-n2cc(CN3CCN(c4ccccn4)CC3)c(-c3ccc(F)cc3)n2)cc1 | -3 | 1.2 | -15 | -13 | u | 16
COC(=O)[C@]1(Cc2ccccc2)N[C@H](CN(C)C(=O)C2CCCCC2)[C@@H]2C(=O)N(C)C(=O)[C@@H]21 | x | 2.9 | 11 | -5 | 6 | 32
CCOc1cc(/C=N/O)ccc1OS(=O)(=O)c1ccc(C)cc1 | 15 | -0.2 | 3 | -3 | -1 | -2
CC[C@H]1C/C=C\Cc2ccccc2[C@H](C(=O)C[C@@H](O)CC(C)=O)OC1=O | x | -0.6 | 0 | -1 | 6 | -5
COc1ccc(CSc2ccc(-c3nc4ccccn4c3NCc3ccccc3)cc2OC)cc1 | 2 | 1.4 | -8 | 11 | -6 | 40
O=C(CC1SC(=Nc2cccc3ccccc23)N(Cc2ccccn2)C1=O)Nc1ccccc1Br (stereo not given) | 0 | 1.4 | 0 | 12 | 11 | 13
CCN(CC(=O)Nc1ccc(NC(C)=O)cc1)C(=O)COc1ccc2ccccc2c1 | 6 | 0.0 | -4 | -14 | 1 | -10
CCCCC(CC)C(=O)Nc1cccc(SC)c1 (stereo not given) | -18 | 2.3 | 7 | -4 | 7 | -7
CS(=O)(=O)c1cccc(S(=O)(=O)N2CCN(c3ccccn3)CC2)c1 | -2 | -0.5 | 2 | -5 | -8 | -13
CCn1c(SC)nc(O)c(C(c2ccc(OC)c(O)c2)c2c(O)nc(SC)n(CC)c2=O)c1=O | 8 | -0.4 | 5 | -5 | 2 | -19
CC(C)Oc1cccc(C(=O)C2CCCN(S(=O)(=O)C(C)C)C2)c1 (stereo not given) | -16 | -0.8 | 6 | -7 | 18 | 28
O=C(c1cccc(Cl)c1)N1CCCc2ccccc21 | 0 | 1.3 | -9 | -6 | 2 | -9
O=C(NCC(c1ccco1)N1CCc2ccccc2C1)c1ccc([N+](=O)[O-])cc1 (stereo not given) | -10 | -0.8 | -18 | -10 | -7 | 15
O=C(NC1CC1)C1CCN(C2CCN(C(=O)/C=C/c3cccc(F)c3F)CC2)CC1 | -5 | 0.4 | 2 | 3 | 4 | 13
CCN(CC)CCCSc1nc2ccccc2s1 | u | 0.0 | 5 | -22 | 0 | -8
CC1(C)CC(=O)C(C#N)=C(NCCCO)C1 | -5 | -0.1 | 6 | -2 | 8 | 5
COC(=O)c1c(C)oc2ccc(N(C(=O)Oc3ccccc3)S(=O)(=O)c3ccccc3)cc12 | 18 | -0.1 | -5 | -19 | 0 | -4
CS(=O)(=O)c1ccc(CNC(=O)C2(C(F)(F)F)CC(CCCO)CCCO2)cc1 (stereo not given) | x | 0.8&0.7 | 3 | -4 | 0 | 4&10
C/C(=N\Nc1nc(-c2ccccc2O)nc2ccccc12)c1ccccc1 | 3 | 1.2 | 1 | -4 | -11 | 0
CN(C)CCCN(C(=O)CCOc1ccccc1)c1nc2c(F)cccc2s1 | -21 | 0.1 | -7 | -39 | 0 | -3
Cc1cc(NC(=O)C2CC(c3ccc(Cl)cc3)=NO2)no1 (stereo not given) | 1 | 2.1 | 4 | -7 | 0 | 14
N#Cc1ccc(NC(=S)Nc2ccccc2)cc1 | 7 | -0.7 | 1 | -9 | -7 | 6
